Compound activity as filed in PubChem BioAssay.
FGF22 binding – binders of human FGF22 protein, primary screen, FGF22 synaptogenesis inhibitor project, biophysical, thermal shift, single point; Fibroblast growth factor 22 (Homo sapiens), Q9HCT0; recombinant FGF22 thermal shift, SYPRO orange fluorescence; percent of sucrose octasulfate shift, DMSO zero; calls only at 9.99 µM; 1.5% of 340,000 active; AID 651658, 2012;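 active = melting point raised past a set limit in the mean and every replicate; three in four hits are not shown here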
Target sequence (Q9HCT0 whole entry, looked up): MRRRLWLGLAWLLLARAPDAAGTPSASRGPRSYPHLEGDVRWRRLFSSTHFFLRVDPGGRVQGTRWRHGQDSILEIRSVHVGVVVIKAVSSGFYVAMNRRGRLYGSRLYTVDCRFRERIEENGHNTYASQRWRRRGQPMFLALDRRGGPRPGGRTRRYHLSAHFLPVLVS
B2AR ag – beta2AR agonists driving receptor internalization, primary screen, cell-based, FAP fluorogen, flow cytometry | response, % (concentration not given with the values) | Am2.2-beta2AR cells; reference of the scale not given here | AID 504454, 2011 | Beta-2 adrenergic receptor (Homo sapiens), P07550 | 0.43% of 340,000 active;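 active = response above a set limit, near 3 SD of response in nonfluorescent compounds, cut at about 42% in these data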;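 note: stock transfer was 100 nL into about 11 µL; a reference agonist was the positive control; negative values mostly stem from fluorescent compounds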
HNF4A DNA FP – change in binding of human HNF4A to DNA, primary screen, biochemical, fluorescence polarization, FITC-DNA. AID 1224865, 2016. 0.3% of 360,000 active. activity change, % at 10 µM. 1 h; in the data active = activity change above about 30%, passing the limit was not always enough;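 note: controls were the assay level and a saturating level of protein; the project sought stronger binding though the title names inhibitors; some compounds called inactive have numbers as strong as hits; positive values seem to mean higher polarization but the record does not say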
Target sequence (P41235 whole entry, looked up): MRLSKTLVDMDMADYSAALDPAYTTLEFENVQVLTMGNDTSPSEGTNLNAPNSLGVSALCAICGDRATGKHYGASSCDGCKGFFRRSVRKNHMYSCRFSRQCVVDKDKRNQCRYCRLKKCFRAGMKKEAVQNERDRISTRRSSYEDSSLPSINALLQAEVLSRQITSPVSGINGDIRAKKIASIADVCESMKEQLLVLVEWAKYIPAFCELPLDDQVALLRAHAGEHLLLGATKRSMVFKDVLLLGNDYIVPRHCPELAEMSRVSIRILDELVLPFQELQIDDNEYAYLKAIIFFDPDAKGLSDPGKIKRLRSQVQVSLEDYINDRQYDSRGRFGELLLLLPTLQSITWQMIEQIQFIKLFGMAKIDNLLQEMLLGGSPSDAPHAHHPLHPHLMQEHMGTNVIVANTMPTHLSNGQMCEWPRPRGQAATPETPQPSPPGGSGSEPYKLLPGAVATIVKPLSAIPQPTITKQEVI
LANA-H2B inh – blockers of LANA interaction with H2A/H2B – biochemical, FP readout, HTS, primary screen; cell-free LANA-H2A/H2B peptide, fluorescence polarization; inhibition, % (concentration not given with the values); 0.6% of 320,000 active; in the data active = inhibition mostly above about 10%, no sharp cut-off; inactive = mostly below about 6.7%;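 note: stock transfer was 7.5 nL into about 10 µL; 0% = median of vehicle wells and 100% = median of positive control wells; one replicate is shown; the record names a cut of 25% in any replicate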
ALR H2O2 inh – inhibitors of human ALR sulfhydryl oxidase, primary screen, biochemical, H2O2 detection, HRP-luminol luminescence, single point; AID 485317, 2010; inhibition, % (test concentration not listed); FAD-linked sulfhydryl oxidase ALR (Homo sapiens), P55789; 3.8% of 290,000 active; purified ALR, DTT oxidation;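 active = mean and each replicate at 75% or more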;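 note: stock transfer was 7.5 nL into about 7.5 µL; 0% = neutral wells and 100% = wells with inactivated enzyme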
UCH37 inh – inhibitors of human UCH37 deubiquitinase, primary screen, biochemical, Ub-AMC cleavage, fluorescence; Ubiquitin carboxyl-terminal hydrolase isozyme L5 (Homo sapiens), Q9Y5K5; purified proteasome/UCH37; inhibition, % (no concentration beside the values); 0.33% of 330,000 active; AID 588478, 2011;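 active = mean of two replicates above 20%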;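 note: 0% = compound-free wells with enzyme and 100% = wells lacking proteasome; stock transfer was 100 nL into about 20 µL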
Target sequence (Q9Y5K5 whole entry, looked up): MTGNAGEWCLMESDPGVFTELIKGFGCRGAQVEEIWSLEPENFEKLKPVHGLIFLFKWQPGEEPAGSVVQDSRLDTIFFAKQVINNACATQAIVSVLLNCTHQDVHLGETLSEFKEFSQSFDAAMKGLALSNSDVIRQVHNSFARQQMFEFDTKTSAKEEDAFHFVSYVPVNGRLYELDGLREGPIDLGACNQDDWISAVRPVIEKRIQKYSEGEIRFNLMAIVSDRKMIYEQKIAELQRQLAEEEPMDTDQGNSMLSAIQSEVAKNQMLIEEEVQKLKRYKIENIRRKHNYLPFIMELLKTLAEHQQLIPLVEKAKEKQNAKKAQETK
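System: Proteasome-associated human UCH37 deubiquitinase; Input: 0.15 nM proteasome in added enzyme buffer; Also added: Ub-AMC substrate from 1 µM stock; Incubation: 30 min compound-proteasome preincubation then 25 min substrate reaction, room temperature; Detection: fluorescence, ex 355 nm, em 460 nm; Read-out: % inhibition of Ub-AMC cleavage fluorescence; Benchmarks: no-proteasome and no-compound wells.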
Ecoli growth – E. coli growth inhibition, primary screen, OD600; Escherichia coli growth, 23 h; hits give low values; OD600 absorbance (no concentration beside the values); 0.21% of 330,000 active; AID 1053175, 2014;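 active = OD600 absorbance below the run mean of sample wells minus 3.6 SD, in any replicate, cut at about 0.56 in these data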;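 note: stock transfer was 300 nL into about 60 µL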
* = called active by the depositor; i = inactive; / = no result given; & = joins results of further samples.

Each structure is followed by: FGF22 binding	B2AR ag	HNF4A DNA FP	LANA-H2B inh	ALR H2O2 inh	UCH37 inh	Ecoli growth
#1 CCC(NC(=O)C1C2C=CC(C2)C1C(=O)O)c1ccc(C)cc1 (stereo unspecified)
→ i	1	0.2	104*	-6	4.3	0.67
#2 CCS(=O)(=O)n1c(Cc2cccs2)nc2ccccc21
→ i	1	-2.8	0.5	-5	0.3	/
#3 CCOC(=O)C1=Nc2ccccc2C1=[N+]=[N-]
→ /	0	0.3	1.5	-12	/	/
#4 COc1ccc([N+](=O)[O-])cc1NC(=O)C(C)OC(=O)Cc1ccc(OC)c(OC)c1 (stereo unspecified)
→ i	-6	-0.3	-0.2	-10	5.9	0.68
#5 CSc1ccccc1C(=O)Nc1cccc([N+](=O)[O-])c1
→ i	-5	-3.6	/	/	1.6	0.73
#6 COc1ccc(CCNC(=O)[C@H](CCSC)NC(=O)N2CCn3c2nc2ccccc23)cc1OC
→ i	-12	-1.9	3.4	-5	4.3	0.66
#7 CCCOc1ccc(C2C(=O)N(C3CCCCC3)CC(=O)N2C2CC2)cc1OC (stereo unspecified)
→ /	-7	-1.6	-1.0	-8	0.1	0.75
#8 Oc1ccccc1CNc1ncc(Br)cc1Br
→ /	-19	1.8	-2.4	/	2.7	0.63
#9 CC(C)CN1C(=O)C(=Nc2cccnc2)c2ccccc21
→ i	4	-0.7	0.2	2	2.6	0.64
#10 O=C(COc1cccc2cccnc12)N/N=C1\SCC(=O)N1CCc1ccccc1
→ i	-1	-1.6	-7.6	-7	/	/
#11 COc1ccccc1C(=O)N(C)c1nnc(-c2ccccc2)s1
→ i	2	-1.9	-2.5	17	4.9	0.65
#12 CC(C)(C)c1cc(N)n(-c2ccc(C(=O)O)cc2)n1
→ i	-1	-1.0	-2.2	2	1.9	0.68
#13 O=C(/C=C/c1ccccc1)CC(=O)c1ccccc1O
→ i	3	4.9	-2.9	2	1.7	0.69
#14 CSc1nc2c(c(=O)[nH]1)C(c1cccc(Cl)c1)CC(=O)N2 (stereo unspecified)
→ i	-1	-2.6	0.5	3	0.4	0.67
#15 Cc1nn(C)cc1CN(C)C(=O)c1ccc(OC2CCN(Cc3ccccn3)CC2)cc1
→ i	-6	-3.0	-0.8	29	-2.3	0.66

Gathered by group, the entries above with four or more nitrogen atoms.
Each structure is followed by: FGF22 binding	B2AR ag	HNF4A DNA FP	LANA-H2B inh	ALR H2O2 inh	UCH37 inh	Ecoli growth
#6 COc1ccc(CCNC(=O)[C@H](CCSC)NC(=O)N2CCn3c2nc2ccccc23)cc1OC
→ i	-12	-1.9	3.4	-5	4.3	0.66
#10 O=C(COc1cccc2cccnc12)N/N=C1\SCC(=O)N1CCc1ccccc1
→ i	-1	-1.6	-7.6	-7	/	/
#15 Cc1nn(C)cc1CN(C)C(=O)c1ccc(OC2CCN(Cc3ccccn3)CC2)cc1
→ i	-6	-3.0	-0.8	29	-2.3	0.66

(more compounds)
Each structure is followed by: FGF22 binding	B2AR ag	HNF4A DNA FP	LANA-H2B inh	ALR H2O2 inh	UCH37 inh	Ecoli growth
#16 N#Cc1c(Cn2cncn2)nc(=O)n(-c2ccccc2)c1N
→ i	15	0.3	-4.3	-8	1.6	0.65
#17 COc1ccc(NC(=O)CCn2ccnc2)c(OC)c1
→ i	-4	-0.5	-1.3	4	2.0	0.69
#18 COc1cc(SC)ccc1C(=O)Nc1cccc(C2OCCCO2)c1
→ i	-3	3.7	4.1	/	1.0	0.66
#19 CCN(CC)CCNC(=O)c1sc2ncn(CC(=O)Nc3ccc(C)c(Cl)c3)c(=O)c2c1C
→ /	22	4.1	-4.3	-4	1.7	0.71
#20 O=C(CSc1nnc2ccccn12)NNC(=O)c1ccc(Br)cc1
→ i	5	-0.5	-1.1	3	2.6	0.67
#21 O=C(NC1CCCCC1)C(c1ccc2ncccc2c1)N(Cc1ccc(F)cc1)C(=O)c1ccc2c(c1)OCCO2 (stereo unspecified)
→ i	-11	8.0	-10	1	1.2	0.73
#22 CC1(C)CC(=O)C2=C(C1)N(Cc1ccco1)C(=O)C2(NC(=O)C1CCCCC1)C(F)(F)F (stereo unspecified)
→ /	5	-0.3	0.1	0	2.9	0.67
#23 CCSC1=N/C(=C/c2ccsc2)C(=O)N1c1ccccc1
→ i	16	0.6	3.7	-4	-10	0.68
#24 COc1ccc(-c2csc(=Nc3c(C)n(C)n(-c4ccccc4)c3=O)n2C(C)(C)C)cc1
→ /	2	3.4	-2.5	-4	-1.1	0.68
#25 N#CCCN(CCC#N)S(=O)(=O)c1ccc(C(=O)Nc2nc(-c3ccccc3)c(C(=O)c3ccccc3)s2)cc1
→ i	7	3.1	-3.0	-1	-2.1	0.69
#26 CC[C@]12c3[nH]c4ccccc4c3CCN1C(=O)C(CC(=O)NCCCN(C)C)C[C@@H]2C(=O)N1CCN(C(=O)C2CC2)CC1 (stereo partly specified)
→ i	-19	2.4	-271	-4	4.4	0.71
#27 COc1ccc(C2c3[nH]c4ccccc4c3C[C@H]3C(=O)N(CCCO)CC(=O)N23)cc1OC (stereo partly specified)
→ i	3	-0.4	-1.0	-10	5.6	0.64
#28 COc1ccccc1NC(=O)C(Sc1ccccc1)c1ccccc1 (stereo unspecified)
→ /	18	1.5	-0.4	84*	-0.1	/
#29 Cc1ccccc1-c1noc(C(C)NC(=O)c2ccco2)n1 (stereo unspecified)
→ i	-16	0.8	-13	/	3.0	0.69
#30 CCc1ccc(C(=O)COC(=O)c2cc([N+](=O)[O-])ccc2N2CCOCC2)cc1
→ i	-1	-1.7	-5.9	-5	4.1	0.7
#31 CC(=O)NCCC(=O)Nc1sc2c(c1-c1nc3ccccc3[nH]1)CCCC2
→ /	7	3.8	0.5	98*	-62	0.7
#32 Cc1ccccc1NC(=S)N1CCN(Cc2ccccc2)CC1
→ i	3	6.5	1.9	-7	3.2	0.71
#33 CCN(CC)CCCNC(=O)C1CCN(C(=O)c2cc3sccc3n2Cc2ccc(F)cc2)CC1
→ i	1	1.0	-3.3	1	0.9	0.73
#34 O=C1NCC(O)=C1C=NC12CC3CC(CC(C3)C1)C2
→ i	-4&-9	4.4&0.5	-3.0&1.7	-6	0.8&1.1	0.68&0.69
#35 Cc1ccc(S(=O)(=O)c2c(C)cc(C)nc2Oc2cccc(C(F)(F)F)c2)cc1
→ /	1	4.3	1.0	-17	0.7	0.76
#36 O=C(Nc1ccccc1)C1=C[C@@H](c2csc3ccccc23)C[C@@H](OCc2ccc(CO)cc2)O1
→ i	-2	3.6	-7.6	6	/	/
#37 S=c1sc2c(N3CCOCC3)ncnc2n1-c1ccccc1
→ i	-3	3.4	-2.4	51	3.1	0.72
#38 Cc1noc(C)c1S(=O)(=O)N1CCC(C(=O)N2CCN(C(=O)c3ccco3)CC2)CC1
→ /	2	-5.3	1.1	-1	1.8	0.69
#39 CCC1(c2ccccc2)NC(=O)N(CC(=O)c2ccc3c(c2)OCO3)C1=O (stereo unspecified)
→ i	-3	2.6	1.3	0	3.2	0.67
#40 O=S(=O)(c1ccccc1)n1nc(-c2ccccc2)nc1NCc1ccco1
→ /	0	-1.0	-0.1	32	3.9	0.72
#41 CC(C)C(=O)NCCc1nc2ccccc2n1C
→ /	5	2.7	-2.5	-1	4.6	0.7
#42 O=S(=O)(Nc1ncccn1)c1ccc(NC(=S)N2CCN(c3cccc(C(F)(F)F)c3)CC2)cc1
→ i	5	-3.6	2.1	11	2.5	0.71
#43 C/C(=N\NC(=O)c1cccs1)c1cccnc1
→ i	-11	1.0	1.5	-6	/	/
#44 CCOc1ccc(S(=O)(=O)NCCC(=O)N(C)CC(=O)Nc2ccc(OC)cc2)cc1
→ i	-3	0.3	0.8	-3	4.3	0.7
#45 Cc1sc(NC(=O)COc2ccccc2)c(C#N)c1C
→ i	-6	6.8	-10	-31	5.4	0.69
#46 CCOC(=O)C1(CCCc2ccccc2)CCN(C(=O)CCc2cnccn2)CC1
→ /	-14	-0.2	-5.1	-5	3.7	0.69
#47 Cc1ccc(C)c(NC(=O)CCC(=O)OC(C(=O)c2ccccc2)c2ccccc2)c1 (stereo unspecified)
→ /	6	2.0	0.9	4	0.0	0.69
#48 Cc1cc(C(=O)N[C@H](c2ccccc2)[C@@]2(C)C[C@@H]2[C@@H](C)C(=O)Nc2ccc3ccccc3c2)n(C)n1
→ i	8	-3.6	2.2	10	1.9	/
#49 O=C(NCc1ccco1)c1cccc(S(=O)(=O)N2CCCC2)c1
→ i	2	-2.3	/	/	2.4	0.71
#50 CCOC(=O)CSc1nnc(NC(=O)C2CC(=O)N(c3ccc(F)cc3)C2)s1 (stereo unspecified)
→ i	17	0.5	-0.4	10	2.0	0.68
#51 COc1cccc(CNC2CCCC2)c1
→ i	-3	-1.0	-1.5	2	-0.2	0.73
#52 CCCCOP(=O)(c1ccc(N(C)C)cc1)C(O)c1c(Cl)cccc1Cl (stereo unspecified)
→ i	-1	0.1	2.5	-3	2.0	0.67
#53 COc1ccc(C)cc1S(=O)(=O)N(CC(=O)NC1CCCC1)c1ccc(F)cc1
→ i	0	-1.3	2.8	-1	1.6	0.64
#54 COc1ccccc1NC(=O)Nc1ccc2c(c1)OCCO2
→ /	4	-3.2	-2.9	-7	1.5	0.65
#55 CS(=O)(=O)Nc1ccccc1Oc1ccccc1
→ /	1	-2.3	2.6	0	-4.2	0.73
#56 CCC(Sc1nc2ncccc2[nH]1)C(=O)NC1CCC(C)CC1 (stereo unspecified)
→ i	-7	0.6	-9.8	-2	1.0	0.78
#57 COC(=O)CSc1nc2c(cnn2-c2ccc(Cl)cc2)c(=O)[nH]1
→ i	23	2.9	-2.2	4	1.6	0.71
#58 COc1cc(C(=O)NCCNC(=O)c2cc(OC)c(C)c(OC)c2)cc(OC)c1C
→ i	6	-4.3	1.1	0	2.3	0.66
#59 CCOC(=O)Oc1c(OC)cc(C(=O)O[C@@H]2C[C@@H]3CN4CCc5c([nH]c6cc(OC)ccc56)[C@H]4C[C@@H]3[C@H](C(=O)OC)[C@H]2OC)cc1OC
→ i	-8	32	-6.0	-5	4.5	/
#60 Nc1ccc(Oc2ccc(Cl)cc2)cc1
→ /	6	2.5	0.1	42	1.4	0.58
#61 Cc1cc(C)n(Cc2ccc(NC(=O)c3nn(C)cc3[N+](=O)[O-])cc2)n1
→ /	1	0.8	6.6	-58	1.9	0.73
#62 CC(C)Cn1c(=O)c2ccccc2n2c(CCC(=O)NCc3ccccn3)nnc12
→ i	-16	-1.6	0.1	-12	-0.3	0.63
#63 CN(Cc1cccs1)C(=O)C1CCN(S(=O)(=O)c2ccccc2)CC1
→ i	-3	2.9	3.6	1	1.2	0.65

An excerpt; the hit share may differ from the screen's.
